AF4-AF9 inh = MLL-AF4/AF9 protein interaction inhibition; inhibition, % at 10 µM; 0.47% of 350,000 active; AlphaScreen, biotin-AF4 peptide binding to FLAG-AF9;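 active = every replicate reaching a set inhibition limit, whatever the replicate mean, cut at about 25% in these data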;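 note: 0% = plate neutral control median and 100% = total signal loss; the record names both 10 and 1 µM as test concentration; the first replicate is given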
Target sequence (P42568 whole entry, looked up): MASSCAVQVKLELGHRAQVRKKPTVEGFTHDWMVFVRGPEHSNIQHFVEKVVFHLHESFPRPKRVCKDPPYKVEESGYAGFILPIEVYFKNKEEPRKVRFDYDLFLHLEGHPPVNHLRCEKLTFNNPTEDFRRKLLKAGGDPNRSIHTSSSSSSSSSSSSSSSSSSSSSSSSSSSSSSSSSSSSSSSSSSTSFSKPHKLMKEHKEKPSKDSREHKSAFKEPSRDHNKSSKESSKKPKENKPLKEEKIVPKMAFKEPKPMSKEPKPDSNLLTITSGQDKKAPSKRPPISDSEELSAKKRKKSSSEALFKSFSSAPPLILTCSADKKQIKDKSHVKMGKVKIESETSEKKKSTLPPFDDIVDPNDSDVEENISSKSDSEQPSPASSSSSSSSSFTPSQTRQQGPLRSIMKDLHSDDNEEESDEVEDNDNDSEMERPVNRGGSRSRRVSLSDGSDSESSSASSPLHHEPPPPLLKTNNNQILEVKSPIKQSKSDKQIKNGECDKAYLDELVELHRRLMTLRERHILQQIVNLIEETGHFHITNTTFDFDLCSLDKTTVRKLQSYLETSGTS
* marks the source's active call; other numbers are inactive results.

SMILES	AF4-AF9 inh
COCC(=O)Nc1ccc2c(c1)OC[C@H](C)N(C(=O)c1ccccc1)C[C@H](C)[C@@H](OC)CN(C)C2=O	0.8
CCC(C)c1ccc(S(=O)(=O)N2CCN(C(=O)c3ccc(Cl)c(S(=O)(=O)N4CCOCC4)c3)CC2)cc1 (centres undefined)	1.7
CCCNC(=O)N1CCC2(CC1)CN(C(=O)CC1CC1)[C@H](CO)c1[nH]c3cc(OC)ccc3c12	-10
COc1ccc2c3c([nH]c2c1)[C@H](CO)N(C(=O)C1CCOCC1)CC31CN(S(C)(=O)=O)C1	-6.6
C[C@H](CO)N1C[C@H](C)[C@H](CN(C)Cc2ccc(Cl)c(Cl)c2)Oc2c(NC(=O)C3CCCCC3)cccc2C1=O	1.1
COc1ccc(NC(=O)Nc2ccc3c(c2)C(=O)N([C@H](C)CO)C[C@H](C)[C@H](CN(C)Cc2ccc4c(c2)OCO4)OCCCC[C@H](C)O3)cc1	19
Cn1c(=O)c2cc(NC(=O)NCc3ccc(F)cc3)ccc2n1Cc1cccc(C(F)(F)F)c1	-2.8
C[C@H]1CN([C@@H](C)CO)S(=O)(=O)c2ccc(C#CCC3CCCC3)cc2O[C@@H]1CN(C)C(=O)CN(C)C	12
COc1cccc(NC(=O)N(C)C[C@H]2Oc3ncc(C4=CCCCC4)cc3C(=O)N([C@H](C)CO)C[C@@H]2C)c1	-0.3
O=C([C@H]1[C@H](CO)[C@H]2Cn3c(ccc(-c4ccccc4)c3=O)[C@H]2N1Cc1cocn1)N1CCCCC1	-1.3
CCC(=O)N1CCC2(CC1)CN(Cc1cc(F)ccc1F)[C@H](CO)c1c2c2ccc(OC)cc2n1C	-0.9
O=C(Nc1ccccc1F)N[C@H]1CC[C@H](CCNS(=O)(=O)c2ccccc2)O[C@H]1CO	-2.8
CNC(=O)C[C@H]1CC[C@@H]2[C@H](COC[C@@H](O)CN2Cc2ccc(C(F)(F)F)cc2)O1	-3.7
O=C(C[C@H]1C=C[C@@H](NC(=O)c2ccncc2)[C@H](CO)O1)Nc1ccccc1	-17
COc1ccc(NC(=O)Nc2ccc3c(c2)CC(=O)N([C@H](C)CO)C[C@H](C)[C@@H](CN(C)S(=O)(=O)c2cccs2)O3)cc1	0.5

Structures from the list above with two or more sulfur atoms, in the order listed:
SMILES	AF4-AF9 inh
CCC(C)c1ccc(S(=O)(=O)N2CCN(C(=O)c3ccc(Cl)c(S(=O)(=O)N4CCOCC4)c3)CC2)cc1 (centres undefined)	1.7
COc1ccc(NC(=O)Nc2ccc3c(c2)CC(=O)N([C@H](C)CO)C[C@H](C)[C@@H](CN(C)S(=O)(=O)c2cccs2)O3)cc1	0.5

(more compounds)
SMILES	AF4-AF9 inh
C[C@H]1CN([C@@H](C)CO)C(=O)Cc2cc(NS(C)(=O)=O)ccc2O[C@@H]1CN(C)Cc1ccc2c(c1)OCO2	0.1
C[C@H]1CN([C@@H](C)CO)C(=O)c2c(c3ccccc3n2C)-c2ccccc2CO[C@@H]1CN(C)C(=O)CCC(F)(F)F	-0.9
CO[C@H]1CN(C)C(=O)c2ccc(NC(=O)C3CC3)cc2OC[C@H](C)N(Cc2nccs2)C[C@H]1C	-0.1
O=C(C[C@@H]1CC[C@@H]2[C@H](COC[C@@H](O)CN2C(=O)Nc2ccccc2)O1)NCc1ccncn1	-0.5
CCN1[C@@H]2Cn3c(ccc(-c4ccccc4OC)c3=O)[C@H]1[C@@H](C(=O)N[C@@H](C)c1ccccc1)[C@@H]2CO	-1.3
Cc1noc(C)c1S(=O)(=O)N(C)C[C@H]1Oc2ccc(NS(=O)(=O)c3ccc(Cl)cc3)cc2C(=O)N([C@H](C)CO)C[C@H]1C	0.7
O=C(Nc1ccccc1)N1CC(=O)N2[C@H](CO)[C@H](c3ccc(C#CC4CCCCC4)cc3)[C@H]2C1	3.0
COc1ccc(NC(=O)Nc2ccc3c(c2)C(=O)N([C@@H](C)CO)C[C@H](C)[C@H](CN(C)C(=O)Nc2ccc4c(c2)OCO4)OCCCC[C@@H](C)O3)cc1	-0.7
Cc1ccc(NC(=O)CN2CCN(C(=O)c3ccco3)CC2)cc1S(=O)(=O)N(C)C	-2.7
Cc1ccc(S(=O)(=O)N(C)C[C@@H]2Oc3cc(C#Cc4ccncc4)ccc3S(=O)(=O)N([C@H](C)CO)C[C@@H]2C)cc1	-1.1
C[C@@H]1CN([C@@H](C)CO)S(=O)(=O)c2ccc(Br)cc2O[C@@H]1CN(C)Cc1cncnc1	-3.6
Cc1noc(C)c1S(=O)(=O)Nc1ccc2c(c1)C(=O)N([C@@H](C)CO)C[C@@H](C)[C@@H](CN(C)CC1CC1)O2	1.8
COc1ccc(-c2cnc3c(c2)C(=O)N([C@@H](C)CO)C[C@@H](C)[C@@H](CN(C)C(=O)Cc2ccncc2)O3)cc1	-0.8
C[C@@H]1CN([C@H](C)CO)C(=O)c2cc(-c3cccnc3)cnc2O[C@@H]1CN(C)C(=O)NC1CCCC1	-15
COCCN(C[C@H]1[C@H](c2ccccc2)[C@H](CO)N1C(C)=O)C(=O)c1cccnc1	-1.8

Some of these compounds in order of length of the SMILES, descending:
SMILES	AF4-AF9 inh
COc1ccc(NC(=O)Nc2ccc3c(c2)C(=O)N([C@@H](C)CO)C[C@H](C)[C@H](CN(C)C(=O)Nc2ccc4c(c2)OCO4)OCCCC[C@@H](C)O3)cc1	-0.7
Cc1noc(C)c1S(=O)(=O)N(C)C[C@H]1Oc2ccc(NS(=O)(=O)c3ccc(Cl)cc3)cc2C(=O)N([C@H](C)CO)C[C@H]1C	0.7
Cc1ccc(S(=O)(=O)N(C)C[C@@H]2Oc3cc(C#Cc4ccncc4)ccc3S(=O)(=O)N([C@H](C)CO)C[C@@H]2C)cc1	-1.1
CCN1[C@@H]2Cn3c(ccc(-c4ccccc4OC)c3=O)[C@H]1[C@@H](C(=O)N[C@@H](C)c1ccccc1)[C@@H]2CO	-1.3
C[C@H]1CN([C@@H](C)CO)C(=O)Cc2cc(NS(C)(=O)=O)ccc2O[C@@H]1CN(C)Cc1ccc2c(c1)OCO2	0.1
Cc1ccc(NC(=O)CN2CCN(C(=O)c3ccco3)CC2)cc1S(=O)(=O)N(C)C	-2.7

Next section:
SMILES	AF4-AF9 inh
O=C(C[C@@H]1CC[C@@H]2[C@H](COC[C@@H](O)CN2C(=O)Nc2ccc(Cl)cc2)O1)NC1Cc2ccccc2C1	-6.1
CC=Cc1ccc2n(c1=O)C[C@@H]1[C@@H](CO)[C@H](C(=O)N(C)C)[C@H]2N1CC1CCOCC1 (mixture of isomers)	-0.7
CCOc1ccc(CCN2C(=S)N([C@@H](CC(C)C)CN3CCCC3CN3C(=S)NC[C@@H]3Cc3ccccc3)C[C@@H]2CC(C)C)cc1 (some centres undefined)	-2.0
CC(=O)O[C@@H]1C[C@H](c2ccccc2)OC(=O)CCCCC1=O	-1.8
C[C@H](CO)N1C[C@H](C)[C@H](CN(C)C(=O)C2CCC2)Oc2cc(C#CCN(C)C)ccc2S1(=O)=O	-4.4
COc1ccc2c3c(n(C)c2c1)[C@H](CO)N(C(=O)Nc1ccccc1F)CC31CN(C(=O)c2ccccc2F)C1	8.1
COCCNC(=O)C1CCCN(Cc2cccc(C#N)c2)CC1 (centres undefined)	-2.5
O=C(c1ccccn1)N1CC[C@H]2[C@H](CO)Nc3ccc(-c4ccc(F)cc4)cc3[C@H]21	-3.8
O=C(Nc1cc(F)ccc1F)N1CCCCN2[C@H](CO)[C@@H](c3ccc(-c4ccccc4)cc3)[C@@H]2C1	-5.9
COc1ccc(-c2ccc([C@H]3[C@@H](C#N)N(C(=O)c4cccc(F)c4)[C@H]3CO)cc2)cc1	0.5
COc1ccc2c3c([nH]c2c1)[C@H](CO)N(C(=O)Cc1ccccc1)CC31CN(C)C1	-1.4
C[C@H](CO)N1C[C@H](C)[C@@H](CN(C)C(=O)C2CCC2)Oc2cc(-c3cncnc3)ccc2S1(=O)=O	-0.2
CCCCN(C=O)c1c(CC)nc2ccc(C(=O)N3CCN(C)CC3)cn12	0.5
CCCC#Cc1cnc2c(c1)C(=O)N([C@@H](C)CO)C[C@@H](C)[C@@H](CN(C)C(=O)Nc1ccc(OC)cc1)O2	4.2
O=C(C1CC1)N1CC2(C1)[C@H](c1ccccc1)[C@@H](CO)N2Cc1cncnc1	0.1
C[C@@H]1CN([C@H](C)CO)C(=O)c2cc(NS(C)(=O)=O)ccc2O[C@@H]1CN(C)C	-2.2
Cc1noc(C)c1NC(=O)N(C)C[C@H]1Oc2ccc(NC(=O)Nc3cccc4ccccc34)cc2C(=O)N([C@@H](C)CO)C[C@@H]1C	2.3
CC(C)[C@@H]1CC2=C(C(=O)OC(C)(C)O2)[C@H](CCc2ccccc2)O1	-6.2
CC(C)[C@H](C)NC(=O)N(C)C[C@H]1OCc2ccccc2-c2ccccc2C(=O)N([C@H](C)CO)C[C@@H]1C	-5.6
O=C(NCC1CCCCC1)[C@@H]1[C@@H](CO)[C@@H]2Cn3c(ccc(-c4ccncc4)c3=O)[C@H]1N2	-0.1
O=C(C[C@@H]1C[C@@H]2c3cc(NC(=O)Cc4ccncc4)ccc3O[C@@H]2[C@H](CO)O1)NCc1cc(F)ccc1F	-1.0
CN1OC[C@@H]2CN(Cc3cc(Cl)cc(Cl)c3)[C@H](c3cccc(Oc4ccccc4)c3)C[C@@H]21	0.0
O=C(c1cccnc1)N1CC(=O)N2[C@H](C1)[C@H](c1ccc(-c3cccnc3)cc1)[C@@H]2CO	32*
C/C=C/c1ccc2c(c1)O[C@@H](CN(C)C(=O)c1cccc(F)c1)[C@H](C)CN([C@H](C)CO)S2(=O)=O	3.3
O=C(c1cccnc1)N1C[C@@H]2[C@H](c3ccccc31)[C@H](CO)N2C(=O)Nc1ccccc1Cl	-2.6
O=C(C1=C[C@H](c2ccccc2)C[C@H](OCc2ccc(CO)cc2)O1)N1CCCC1	-5.2
CNC[C@H]1Oc2c(NC(=O)Nc3ccc(C(F)(F)F)cc3)cccc2C(=O)N([C@H](C)CO)C[C@H]1C	1.3
C/C=C/c1ccc2c(c1)O[C@@H](CN(C)C(=O)c1ccccc1)[C@H](C)CN([C@@H](C)CO)S2(=O)=O	-0.7
COc1cc(CN2C(=O)C(C)ON=C2c2cccs2)cc(OC)c1 (centres undefined)	1.8
CO[C@H](CN(C)S(=O)(=O)c1cccc(Cl)c1)[C@H](C)CN([C@@H](C)CO)S(=O)(=O)c1cccc(Cl)c1	-6.2
COCC(=O)N1[C@H](C#N)[C@@H](c2ccc(C3=CCCCC3)cc2)[C@@H]1CO	2.3
CCC(=O)N1C[C@@H](C)[C@@H](OC)CN(C)C(=O)c2ccc(NC(=O)C3CC3)cc2OC[C@@H]1C	-0.8
C[C@H]1CN([C@@H](C)CO)C(=O)c2cc(NC(=O)Nc3ccccc3)ccc2O[C@H]1CN(C)C(=O)Nc1ccccc1	1.9
C[C@@H]1CN([C@H](C)CO)C(=O)c2ccccc2-c2ccccc2CO[C@H]1CN(C)C(=O)c1ccncc1	1.6
CO[C@H]1CN(C)C(=O)c2cc(NC(=O)C3CC3)ccc2OC[C@H](C)N(C(=O)c2ccccc2)C[C@H]1C	0.8
O=C1CCC(OCc2ccccc2)CCN1CC[C@@H](Sc1ccccc1)c1ccccc1 (some centres undefined)	-2.5
CCCS(=O)(=O)NC(=O)C1(C)CCCN(C(=O)c2cc(F)ccc2C)C1 (centres undefined)	1.2
COc1cccc(-c2ccc3c(c2)O[C@H](CN(C)C(=O)C2CCOCC2)[C@H](C)CN([C@H](C)CO)S3(=O)=O)c1	-2.2
CNC[C@@H]1Oc2ccc(NC(=O)CCC(F)(F)F)cc2CC(=O)N([C@H](C)CO)C[C@@H]1C	-0.3
COCC(=O)Nc1ccc2c(c1)C(=O)N(C)C[C@H](OC)[C@H](C)CN(CCC(F)(F)F)[C@@H](C)CO2	2.5
Cc1noc(C)c1NC(=O)N(C)C[C@@H]1OCCCC[C@H](C)Oc2ccc(NS(=O)(=O)c3c(C)noc3C)cc2C(=O)N([C@@H](C)CO)C[C@H]1C	4.2
OC[C@H]1[C@H](c2ccc(C3=CCCC3)cc2)[C@H]2CN(CCC(F)(F)F)CCCCN21	1.1
O=C(C[C@@H]1C[C@H]2c3cc(NC(=O)NC4CCCCC4)ccc3O[C@H]2[C@@H](CO)O1)NCc1cccnc1	0.5
CCC(=O)N1C[C@H](C)[C@@H](OC)CN(C)C(=O)c2ccc(NC(=O)Nc3ccc(Cl)cc3)cc2OC[C@H]1C	3.2
O=C(N[C@@H]1CC[C@H](CC(=O)N2CCc3ccccc3C2)O[C@@H]1CO)C1CCOCC1	-21
CCC(=O)N(C)C[C@@H]1Oc2ncc(C#CC(C)C)cc2C(=O)N([C@H](C)CO)C[C@H]1C	-0.6
C[C@H]1CN([C@@H](C)CO)C(=O)c2cc(-c3cncnc3)cnc2O[C@@H]1CN(C)Cc1ccc(Oc2ccccc2)cc1	10
O=C(Cc1ccccc1)N1CC(=O)N2[C@H](C1)[C@@H](c1ccc(-c3ccc(F)cc3)cc1)[C@@H]2CO	-0.9
CO[C@@H]1CN(C)C(=O)c2ccc(NC(=O)NC(C)C)cc2OC[C@@H](C)N(Cc2ccc(-c3ccccn3)cc2)C[C@@H]1C	1.7
CCC(c1nnnn1-c1ccc2c(c1)OCCO2)N1CCN(C)CC1 (centres undefined)	-2.2
CNC[C@H]1Oc2ncc(C#CC3CCCC3)cc2C(=O)N([C@H](C)CO)C[C@H]1C	-7.3
O=C(Nc1c(-c2ccccc2)[nH][nH]c1=O)c1cccc(C(F)(F)F)c1	-0.8
Cc1ccc(S(=O)(=O)N2[C@@H](c3ccc(C#N)cc3)C(C(=O)O)=C[C@H]2CC2CCCC2)cc1	-1.9
CCCC#Cc1cnc2c(c1)C(=O)N([C@H](C)CO)C[C@H](C)[C@H](CN(C)C(=O)c1ccc(F)cc1)O2	1.1
O=C(Nc1ccccc1)N[C@H](Cc1ccccc1)Cn1cc(CN2C(=O)COC[C@H]2c2ccccc2)nn1	3.6
C[C@@H]1CN([C@@H](C)CO)S(=O)(=O)c2ccc(C#C[C@@H](C)O)cc2O[C@@H]1CN(C)Cc1cncnc1	-1.5

AF4-AF9 inh: what is marked active above.
SMILES	AF4-AF9 inh
O=C(c1cccnc1)N1CC(=O)N2[C@H](C1)[C@H](c1ccc(-c3cccnc3)cc1)[C@@H]2CO	32*

The list is partial (hit frequency here may not be typical).
